Screening results deposited in PubChem by National Center for Advancing Translational Sciences (NCATS).
HSD17B inh – inhibitors of human HSD17B10 dehydrogenase; Q99714; recombinant HSD17B10, NADH fluorescence kinetic; many of its hits are not listed in these tables; Potency, µM (doses to about 57.1 µM), for the others: at the top dose activity change, negative = inhibition, usual class: inhibitors; 75,000 compounds, 7.6% hits; AID 893; active = well fitted inhibition curve with a large enough effect; inconclusive = small, poorly fitted or top-dose-only effect; inactive = no such curve, though single readings can be large or run the other way;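 also: the protocol describes HADH2 (HSD17B10) and not the HSD17B4 of the title; nearly all actives have a fitted effect of over 70% in size; most hits overshoot -100% by far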
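20 nM HADH2, pH 9.0 Tris/Tween; cpd preinc 15 min RT; start w/ 1 mM NAD+ + 90 uM b-hydroxybutyryl-CoA; kinetic fluor ex360/em450 q30s x 4 min; delta last-first.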
* hit, by the source's call; u = inconclusive; [ ] = remark or other dose. % is scaled to controls: 0 for no effect and ±100 for the full control effect; potency is read from the fitted curve at half-maximal effect.

A first look, 2 compounds:
SMILES | HSD17B inh
N#CCSc1nc2cc(C(=O)N3CCC(C(N)=O)CC3)ccc2c2nc3ccccc3n12 | 34%[activator]
COc1nc(-c2ccc(Cl)cc2)ccc1-c1noc(-c2ccco2)n1 | -10%

All compounds of this part (from the top)
SMILES | HSD17B inh
N#CCSc1nc2cc(C(=O)N3CCC(C(N)=O)CC3)ccc2c2nc3ccccc3n12 | 34%[activator]
COc1nc(-c2ccc(Cl)cc2)ccc1-c1noc(-c2ccco2)n1 | -10%
Cc1ccc2[nH]c3c(c2c1)CN(C(=O)CN1CCN(Cc2ccc4c(c2)OCO4)CC1)CC3 | -6%
CC(=O)Nc1ccc(OCC(O)Cn2nc(C)nc2C)cc1 (stereo not drawn) | 3%
CN(Cc1ccco1)c1ncnc2ccc(-c3ccccc3C#N)cc12 | 32µM*
COC(=O)c1cc(NC(=O)c2nccnc2C(=O)O)cc(C(=O)OC)c1 | 2%
Nc1nc(-c2cccnc2)nn1S(=O)(=O)c1ccccc1 | -2%
CCC(C)(C)NC(=O)C(c1cccn1C)N(C(=O)Cn1nnc2ccccc21)c1ccccc1OC (stereo not drawn) | 2%
O=C(Nc1ccc(N2CCCCC2)cc1)c1cccnc1 | 5%
O=C1CC2(CCCCC2)Oc2ccc(OCC(=O)N3CCOCC3)cc21 | 32µM*
CC1CN(S(=O)(=O)c2ccc(NC(=O)CCN3C(=O)c4ccccc4C3=O)cc2)CC(C)O1 (stereo not drawn) | -7%
CC(=O)Nc1cc(C(=O)O)ccc1S(=O)(=O)c1ccc(C)cc1 | -10%
CC(=C1C(=O)c2ccccc2C1=O)N1CCC(C(N)=O)(N2CCCCC2)CC1 | 3%
CN(C)S(=O)(=O)c1ccc(C(=O)Nc2ccc(CN3CCCC3)cc2)cc1 | -3%
C[C@]12CC[C@H]3c4ccc(OC[C@H]5CO5)cc4CC[C@H]3[C@H]1CC[C@@H]2O | 44%[activator][11.4 µM]
CC(C)Nc1ccccc1 | 1%
CCOC(=O)c1[nH]c(C)c(/C(O)=C2\C(=O)C(=O)N(CCCN3CCOCC3)C2c2cccnc2)c1C (stereo not drawn) | -15%
O=C(NCCSCc1ccco1)Nc1ccc(Cl)cc1 | -9%
CCC(C)n1[nH]c(=O)c2c(C)cc(C)nc21 (stereo not drawn) | 4%
Nc1nc(-c2ccco2)nn1C(=O)CCc1ccccc1 | 13%
O=C1C(Cl)=C(N2CCOCC2)C(=O)N1c1cccc(Cl)c1 | -21%
Cc1cc(CN2CCCCC2)c(O)c(CN2CCCCC2)c1 | -1%[11.4 µM]
CCOc1ccc(C2CC(c3ccccc3C)n3nc(N)nc3N2)cc1 (stereo not drawn) | 4%
COc1ccccc1N1CCN(C2=NS(=O)(=O)c3ccccc32)CC1 | 3%
C/C(Cl)=C\Cn1c(Nc2cccc(C)c2)nc2c1c(=O)n(C)c(=O)n2C | 11%
CC(C)C(c1nnnn1C(C)(C)C)N1CCN(c2cccc(Cl)c2)CC1 (stereo not drawn) | 0%
COc1cccc(NC2c3ccccc3C(=O)N2Cc2ccco2)c1 (stereo not drawn) | -29%
COC(=O)c1ccccc1NC(=O)C1CCCN(S(=O)(=O)c2ccc(F)cc2)C1 (stereo not drawn) | u
CCCNC(=O)NCCc1c(C)[nH]c2ccccc12 | 0%
O=C(C(Cc1ccccc1)n1cccc1)N1CCN(Cc2ccccc2)CC1 (stereo not drawn) | -4%
Cc1cc(C)cc(-c2nnc(SCC(=O)N3CCN(C(=O)c4ccco4)CC3)o2)c1 | 5%
Cc1cccc(C(=O)O)c1[N+](=O)[O-] | 1%
C=CCOc1ccc(C2NC(=O)NC(C)=C2C(=O)OC)cc1 (stereo not drawn) | 7%
CC(=O)OC1CCC2(C)C(=CC=C3C2CCC2(C)C3CCC2C(C)/C=C/C(C)C(C)C)C1(C)C (stereo not drawn) | 0%
COC(=O)c1[nH]c2ccc(F)cc2c1NC(=O)CCN1CCN(Cc2ccc3c(c2)OCO3)CC1 | u
CCOc1ccc(CCNC(=O)C(C)n2nc(C)n3c(cc4occc43)c2=O)cc1OCC (stereo not drawn) | 5%
Cc1cc(C)n2nc(C(=O)Nc3ccc4c(c3)OCO4)nc2n1 | -20%
Cc1ccc2occ(C(c3nnnn3C3CCCC3)N3CCN(C(=O)c4ccco4)CC3)c(=O)c2c1 (stereo not drawn) | -5%
COc1ccc(S(=O)(=O)Nc2c(C)ccc3nsnc23)cc1OC | -1%
CCCCN(C)C(=O)c1cn(CC)c2ccc(S(=O)(=O)N(C)C)cc2c1=O | -1%
Cc1nnc(N(C)C(=O)c2cccnc2)s1 | -6%
CCOc1ccc(/C=C\C(C)=N\O)cc1 | -2%
O=C(CN(Cc1ccco1)C(=O)CNS(=O)(=O)c1ccc(F)cc1)NCc1ccc(F)cc1 | -4%
CCc1cccc(CC)c1N(COC)C(=O)Cn1ccccc1=N | u
O=C(COC(=O)C1CC(=O)N(Cc2ccco2)C1)c1ccc(OC(=O)c2ccco2)cc1 (stereo not drawn) | -19%
Cc1nnc(SCCn2c(N3CCCCC3)nc3c2c(=O)n(C)c(=O)n3C)s1 | 1%
O=C(CN1CCN(S(=O)(=O)c2ccc(F)cc2)CC1)Nc1ccccc1F | 0%
Cc1cccc(CNc2ncncc2-c2ccccc2CN(C)C)c1 | 4%
Cc1ccc(-n2c(=O)[nH]cc(C(=O)Nc3ccc4c(c3)OCCO4)c2=O)cc1 | 2%
Cc1nn(-c2ccccc2)c(Cl)c1C(=O)Nc1c(C)n(C)n(-c2ccccc2)c1=O | -3%
N=C(N)c1ccccc1 | 4%
Cc1cc2ccccc2c[n+]1CC(O)C[n+]1cc2ccccc2cc1C | u
CC(C)OC(=O)C1C2C=CC3(CN(Cc4cccs4)C(=O)C13)O2 (stereo not drawn) | 8%
CCc1cc(C=C(Cl)Cl)oc(=O)c1C | -4%
Cc1cccc(NC(=O)Cn2c(=O)n3nc(CCn4nc(C)cc4C)nc3c3ccccc32)c1 | -2%
O=S(=O)(NCc1ccco1)c1ccc2c(c1)Cc1ccccc1-2 | -2%
O=C1CCc2cc(S(=O)(=O)NC(Cc3ccccc3)C(=O)NC3CCCCC3)ccc2N1 (stereo not drawn) | 4%
Cc1[nH]nc2c1C(c1ccccc1)C1=C(CC(C)(C)CC1=O)N2 (stereo not drawn) | 25µM*
CC(Oc1ccc(Cl)cc1Cl)C(=O)NCc1ccncc1 (stereo not drawn) | 9%
COCCn1c(=O)cnc2cnc(OC)nc21 | 0%

16 consecutive compounds from above, quoted:
SMILES | HSD17B inh
O=C(COC(=O)C1CC(=O)N(Cc2ccco2)C1)c1ccc(OC(=O)c2ccco2)cc1 (stereo not drawn) | -19%
Cc1nnc(SCCn2c(N3CCCCC3)nc3c2c(=O)n(C)c(=O)n3C)s1 | 1%
O=C(CN1CCN(S(=O)(=O)c2ccc(F)cc2)CC1)Nc1ccccc1F | 0%
Cc1cccc(CNc2ncncc2-c2ccccc2CN(C)C)c1 | 4%
Cc1ccc(-n2c(=O)[nH]cc(C(=O)Nc3ccc4c(c3)OCCO4)c2=O)cc1 | 2%
Cc1nn(-c2ccccc2)c(Cl)c1C(=O)Nc1c(C)n(C)n(-c2ccccc2)c1=O | -3%
N=C(N)c1ccccc1 | 4%
Cc1cc2ccccc2c[n+]1CC(O)C[n+]1cc2ccccc2cc1C | u
CC(C)OC(=O)C1C2C=CC3(CN(Cc4cccs4)C(=O)C13)O2 (stereo not drawn) | 8%
CCc1cc(C=C(Cl)Cl)oc(=O)c1C | -4%
Cc1cccc(NC(=O)Cn2c(=O)n3nc(CCn4nc(C)cc4C)nc3c3ccccc32)c1 | -2%
O=S(=O)(NCc1ccco1)c1ccc2c(c1)Cc1ccccc1-2 | -2%
O=C1CCc2cc(S(=O)(=O)NC(Cc3ccccc3)C(=O)NC3CCCCC3)ccc2N1 (stereo not drawn) | 4%
Cc1[nH]nc2c1C(c1ccccc1)C1=C(CC(C)(C)CC1=O)N2 (stereo not drawn) | 25µM*
CC(Oc1ccc(Cl)cc1Cl)C(=O)NCc1ccncc1 (stereo not drawn) | 9%
COCCn1c(=O)cnc2cnc(OC)nc21 | 0%

(further entries)
SMILES | HSD17B inh
CCCS(=O)(=O)N1CCC(C(=O)NCCCN2CCCC2=O)CC1 | 6%
COCCn1c(=O)c(-c2ccc(Cl)cc2)nc2cnc(Oc3ccc(OC)cc3)nc21 | u
COCC(=O)N1CCC2(CC1)CCN(C(c1ccccc1)c1ccccc1)CC2 | 8%
COc1ccc(C2CC(=O)c3cnc(NC(=O)c4ccccc4)nc3C2)c(OC)c1 (stereo not drawn) | -15%
Cc1occc1C(=O)Nc1sc2c(c1C(N)=O)CCCCC2 | u
CCn1c(=O)n(CC(=O)NCc2ccco2)c(=O)c2ccccc21 | -29%
Cc1ccc(CNC(=O)Cn2c(=O)oc3ccccc32)o1 | -7%
COc1cc(OC)c(C2C(C(=O)Nc3ccc(C)cc3C)=C(C)Nc3ncnn32)cc1OC (stereo not drawn) | u
COc1ccc(OC2C=CC(c3ccccc3)OC2CO)c(C(C)=O)c1 (stereo not drawn) | 6%[11.4 µM]
COc1ccc(C(=O)NCCn2cc(SCC(=O)Nc3nnc(C)s3)c3ccccc32)cc1 | -4%
Cc1ccc2c(c1)[nH]c1c(=O)n(CCN3CCCCC3)cnc12 | 1%
Cn1c(=O)c2c(ncn2CC(=O)N2CCOCC2)n(C)c1=O | -2%
Cc1ccnc(NC(=O)CCC(=O)N(CC(=O)NC2CCCCC2)c2cccc(C)c2C)c1 | 6%
CC(=O)c1cnc(N2CCCCC2)nc1C | 2%
Nc1c(S(=O)(=O)c2cccs2)c2nc3ccccc3nc2n1/N=C/c1cccc(O)c1 | 32µM*
COCCCn1c(SCC(=O)NC(C)(C)C)nnc1-c1ccccc1 | 14%
CCCCCOC(=O)c1cc(=O)[nH]c2ccccc12 | -13%
COc1ccc2nc(NC(=O)CCn3cccc3)sc2c1 | 3%
CCOCC(=O)NCc1ccc2c(c1)OCO2 | u
[O-]/[N+](=C\c1ccccc1)[C@@H]1CCCC[C@@H]1/[N+]([O-])=C/c1ccccc1 | 1%
O=C(CN1CCN(S(=O)(=O)c2ccc(F)cc2)CC1)Nc1cccc(C(F)(F)F)c1 | -1%
COc1ccc(Cl)cc1Nc1nc(NCCO)nc(N2CCCC2)n1 | -18%
Cc1cc(C)c(OCC(=O)Nc2nnn(C)n2)c(Br)c1 | -13%
CC1=C(C(=O)OCc2ccccc2)C(c2ccccc2)NC(=O)N1CCCCCC(=O)O (stereo not drawn) | -6%
CC(=O)c1cc(C#N)c(SCC(=O)OC(C)C)nc1C | 32%[activator]
CN(CC(=O)N1CCN(c2ccccn2)CC1)S(=O)(=O)c1ccc2ccccc2c1 | u
CN1CC[C@@]2(CCCN(S(=O)(=O)c3ccccc3)C2)C1 | -6%
CCN(CC)C(=O)c1cc2cc(Br)ccc2oc1=O | -4%
COC(=O)c1ccccc1S(=O)(=O)N(Cc1cc2ccc(OC)cc2[nH]c1=O)CC1CCCO1 (stereo not drawn) | u
CC(=O)N1CCN(CCN=CC2=C(O)CC(c3cccs3)CC2=O)CC1 (stereo not drawn) | -7%
CCCC(c1c(C)n(C)n(-c2ccccc2)c1=O)c1c(C)n(C)n(-c2ccccc2)c1=O | 13%
CNCCOCC(O)CSc1ccccc1 (stereo not drawn) | 3%
COc1ccccc1CNc1ncncc1-c1ccoc1 | -13%
CCOCCCNC(=O)C1CCCCN1S(=O)(=O)c1ccc(F)cc1 (stereo not drawn) | -5%
O=c1cc(N2CCC(Cc3ccccc3)CC2)[nH]c(=O)n1C1CCCCC1 | 7%
O=S(=O)(CCSc1ccccn1)c1nc2ccccc2s1 | -1%
Cc1ccc(C(=O)C2=C(O)C(=O)N(CCCN(C)C)C23C(=O)N(C)c2ccccc23)o1 (stereo not drawn) | 3%
Cc1cccc(NC(=O)CSc2nc3c(c(=O)[nH]2)CCC3)c1C | 0%
COCCNC(=O)C(c1ccc(C)o1)N(Cc1cccs1)C(=O)c1snc(C(N)=O)c1N (stereo not drawn) | 25µM*
CCCc1cc(=O)n2[nH]c(C)c(-c3ccccc3)c2n1 | 32µM*
O=C(O)C=C1C2CC3CC(C2)CC1C3 | -5%
COc1cc(NC(=O)C2CCCCC2)c(OC)cc1NC(=O)CN1CCCCC1 | 12%
O=C(NCCN1CCOCC1)c1ccc(-c2ccccc2)cc1 | -2%
N#Cc1nc(COc2ccccc2)oc1N1CCN(Cc2ccccc2)CC1 | -4%
CN(C)c1ncnc2ccc(-c3ccoc3)cc12 | 4%
COc1cc(C(=O)OCn2nnc3ccccc3c2=O)cc(OC)c1OC | 5%
COc1cccc(Cn2c(=O)c(CCc3ccccc3)nc3cnc(N4CCNCC4)nc32)c1 | 2%
CN(c1ccccc1C(=O)O)S(C)(=O)=O | 4%
CC1(C)Cc2c(sc3c2c(=N)n(Cc2ccco2)c(=O)n3CC(=O)Nc2ccc(Cl)cc2)CO1 | 25µM*
Oc1ccccc1C1=Nc2ncnn2C(c2ccccc2)C1 (stereo not drawn) | 7%
O=C(NCC1CCCO1)c1c(O)c2c([nH]c1=O)CCCC2 (stereo not drawn) | 1%
COc1cccc2cc(C(=O)NC(C)C3CCCO3)c(=O)oc12 (stereo not drawn) | -8%
CCOc1ccc(NC(=O)CSc2nc3c(c(=O)n2-c2ccccc2OC)SCC3)cc1 | -23%
O=S(=O)(NCCOc1ccc(F)cc1)c1ccc2c(c1)OCCO2 | -4%
CCOC(=O)N1CCN(C(=O)CSc2ccccc2)CC1 | -20%
O=C(CSc1ccc2nnc(-c3ccncc3)n2n1)N1CCc2ccccc21 | 13%
CC(SCc1ccccc1)C(=O)NC1CCCC1 (stereo not drawn) | 1%
O=C(c1ccco1)n1nc(-c2ccc(Cl)cc2)nc1NCc1ccco1 | 36%[activator]
CCOC(=O)N1CCC(NC(=O)CCN2C(=O)COc3ccccc32)CC1 | -22%
O=c1n(-c2cccc(Cl)c2)c(=O)n2n1CCC2 | 9%
COc1ccc(CNC(=O)CS(=O)Cc2nc(-c3ccc(C)cc3)oc2C)cc1 (stereo not drawn) | -8%

Not all compounds are listed. The share of hits here may be higher or lower than overall.
